Screening results: PubChem BioAssay, National Center for Advancing Translational Sciences (NCATS)
Six1-Eya2 blk – qHTS Assay for Inhibitors of the Six1/Eya2 Interaction | activity change, % (concentration not given with the values) | Homeobox protein SIX1 (Homo sapiens) + Protein phosphatase EYA2 (Homo sapiens), … | 0.56% of 360,000 active | AlphaScreen GST-Six1/His-Eya2 binding, biochemical; active compounds read low; control for the full effect not named in the record; in the data active = activity change below about -65%; inconclusive = about -30% to -65%; inactive = above about -30%; further: on the % scale 0 is the no-effect control and ±100 the full control effect
Target sequence (O00167 whole entry, looked up): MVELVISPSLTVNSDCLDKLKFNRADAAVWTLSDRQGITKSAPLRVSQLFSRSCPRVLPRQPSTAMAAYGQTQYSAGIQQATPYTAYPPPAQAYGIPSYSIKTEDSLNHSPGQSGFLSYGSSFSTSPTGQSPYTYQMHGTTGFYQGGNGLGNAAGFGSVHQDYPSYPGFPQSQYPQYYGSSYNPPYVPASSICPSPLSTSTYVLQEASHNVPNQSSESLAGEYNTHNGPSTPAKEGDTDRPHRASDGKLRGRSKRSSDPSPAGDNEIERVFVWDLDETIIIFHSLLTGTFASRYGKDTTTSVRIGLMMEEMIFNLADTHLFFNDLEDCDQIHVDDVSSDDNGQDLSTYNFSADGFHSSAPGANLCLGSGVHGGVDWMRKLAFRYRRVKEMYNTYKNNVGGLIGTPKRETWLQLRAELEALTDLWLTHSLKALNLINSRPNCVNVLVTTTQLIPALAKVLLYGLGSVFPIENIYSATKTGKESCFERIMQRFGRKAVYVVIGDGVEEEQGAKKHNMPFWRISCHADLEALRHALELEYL
Target sequence (Q15475 whole entry, looked up): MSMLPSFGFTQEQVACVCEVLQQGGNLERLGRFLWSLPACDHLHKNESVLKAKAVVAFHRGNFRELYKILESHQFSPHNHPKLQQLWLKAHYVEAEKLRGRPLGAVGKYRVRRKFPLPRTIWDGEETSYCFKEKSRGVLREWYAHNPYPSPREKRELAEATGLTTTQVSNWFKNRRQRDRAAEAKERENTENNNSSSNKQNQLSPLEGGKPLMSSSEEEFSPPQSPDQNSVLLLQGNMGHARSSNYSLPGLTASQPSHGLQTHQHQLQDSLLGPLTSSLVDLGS
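Homogeneous AlphaScreen proximity assay pairing GST-Six1 with His-tagged Eya2 (added as 5X mix: 250 nM and 500 nM) in 50 mM Tris pH 8.0, 300 mM NaCl, 1 mM TCEP. Glutathione donor and nickel acceptor beads; 1 h, 37 °C, dark.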
D2 ag – Beta-Arrestin HTS for Positive Allosteric Modulators of the Human D2 Dopamine Receptor: Agonists; activation, % (concentration not given with the values); D(2) dopamine receptor (Homo sapiens), P14416; DiscoveRx PathHunter D2 beta-arrestin, luminescence, 90 min; 100% = 57 uM dopamine signal; 0.084% of 360,000 active; in the data active = activation above about 40%; inconclusive = about 15% to 40%; inactive = below about 15%; further: compound concentration not given in the record; the text of the record calls up to 30% inactive
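DiscoveRx PathHunter D2 beta-arrestin cells (2,100/well) attached overnight, then compound-stimulated 90 min at 37 C in HBSS/10 mM HEPES/0.1% Tween-20 buffer; beta-galactosidase complementation read by luminescence after 1 h at ambient temperature. Dopamine 57 uM final (EC100) as control.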
TRPML1 ag – qHTS for Agonists of the Human Mucolipin Transient Receptor Potential 1 (TRPML1); Mucolipin-1 (Homo sapiens), Q9GZU1; TRPML1-expressing cells, Ca2+ dye fluorescence, FDSS; host cell line not named in the record; reference of the full effect not given here; activation, % (no concentration beside the values); 0.12% of 410,000 active; in the data active = activation above about 50%; inconclusive = about 30% to 50%; inactive = below about 30%; further: 0% is about no effect; the text of the record puts the active cut at 80%
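Tetracycline-induced TRPML1-DL cells are seeded and incubated overnight before loading with a no-wash Ca2+ dye and quencher. Agonist activity is taken from the 110 s fluorescence read following compound pin-transfer on an FDSS, before EC80 54-4 challenge.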
TRPML1 blocker – qHTS for Inhibitors of the Human Mucolipin Transient Receptor Potential 1 (TRPML1); activity change, negative = inhibition, % (no concentration beside the values); Mucolipin-1 (Homo sapiens), Q9GZU1; 0.02% of 390,000 active; TRPML1-inducible cells, Ca2+ dye fluorescence, FDSS; active compounds read low; inhibition of EC80 agonist-evoked calcium signal; in the data active means activity change below about -50%; inconclusive means about -30% to -50%; inactive means above about -30%;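 further: stimulus is agonist 54-4 at its EC80 concentration; on the % scale 0 is the no-effect control and ±100 the full control effect; compound concentration not given in the record; the text of the record puts the active cut at -80%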
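Calcium fluorescence in TRPML1-DL cells induced overnight with Tet: a 110 s read after compound pin addition, then a 110 s antagonist read after challenge with 54-4 at 4 uM final (EC80).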
CtBP-E1A inh – qHTS Assay for Inhibitors of the CtBP/E1A Interaction; CtBP / adenovirus E1A interaction (AlphaScreen); AlphaScreen GST-E1A/His-CtBP binding, 1536-well; active compounds read low; control for the full effect not named in the record; activity change, % (test concentration not listed); 0.49% of 340,000 active; AID 651724, 2012; in the data active means activity change below about -65%; inconclusive means about -30% to -65%; inactive means above about -30%; further: on the % scale 0 is the no-effect control and ±100 the full control effect
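AlphaScreen with 125 nM GST-E1A and 125 nM His-CtBP (5X stocks) in Tris pH 8.0, 300 mM NaCl, BSA, Tween 20, TCEP. Compounds preincubated 2 h at 37 deg C, then glutathione donor/nickel acceptor beads added for 1 h at 37 deg C in dark.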
PINK1 expr mod – A Quantitative High throughput Screen to Identify Chemical Modulators of PINK1 Expression; PINK1 immunofluorescence, high-content cytometry, 24 h; Potency, µM (titrated, usually from 76.6 µM), inactives show at the highest dose activation (PINK1 increase), usual class: activators; 0.2% of 410,000 active; AID 624263, 2012; active = well fitted activation curve with a large enough effect; inconclusive = small, poorly fitted or top-dose-only effect; inactive = flat fitted curve, though single readings scatter; cell line not stated here;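 further: potency means the concentration at half of the fitted maximal effect; % of control where 0% means no effect; nearly all actives have a fitted effect of over 65% in size; a mitochondrial uncoupler was the plate control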
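Readout is PINK1 immunofluorescence, quantified alongside mitochondrial, cell and nuclear markers by laser-scanning microplate cytometry. Cells from a stable line were exposed to compound titrations (5 concentrations) for 24 hours, with CCCP controls.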
The depositor's hits bear a star; u = inconclusive; x = no result given; & = joins results of further samples; [ ] = another dose, or the depositor's remark.

structure	Six1-Eya2 blk	D2 ag	TRPML1 ag	TRPML1 blocker	CtBP-E1A inh	PINK1 expr mod
COC(=O)C1CCN(C(=O)COC(=O)c2ccc(=O)n(Cc3ccccc3)n2)CC1	1	-2.1	0.0	-2	2	-2.0%
Cc1cccc(-c2noc(CN(C(=O)C34CC5CC(CC(C5)C3)C4)C(C)C)n2)c1	7	5.2	0.2	7	0	28%
COc1cccc(N2CC(O)Cn3c2nc2c3c(=O)[nH]c(=O)n2C)c1 (stereo not given)	11	2.7	0.5	-14	-14	0.7%
Cc1sc2nc(C3CC3)nc(NCCNS(C)(=O)=O)c2c1C	-11	0.3	4.6	29	-5	-0.8%
CCCCOc1ccc(NC(=O)C(=O)NCCCn2ccnc2)cc1	-7	-1.8	-0.4	-3	-10	-2.2%
CSCCC(NC(=O)c1ccccc1Cl)C(=O)NCC(c1cccs1)N(C)C (stereo not given)	5	-3.2	-1.1	-4	-1	-0.3%
Cc1cc(C(=O)N2CCCC(C(=O)c3cccc(C(F)(F)F)c3)C2)nc(C)n1 (stereo not given)	3	2.2	-0.3	-10	2	1.7%
CC(=O)NC(Cc1c[nH]c2ccccc12)C(=O)O (stereo not given)	9	-1.8	x	x	1	-0.1%
NS(=O)(=O)c1ccc(CCNc2nc3c(-c4cccc(F)c4)nnn3c3ccccc23)cc1	-6	-5.2	-0.5	5	4	5.4%
O=C(CN(C1CC1)S(=O)(=O)c1ccc(S(=O)(=O)N2CCCCCC2)cc1)Nc1ccccc1	5	-0.7	0.0	1	4	17%
Cc1noc(C)c1NC(=O)Nc1ccc2c(c1)C(=O)N([C@@H](C)CO)C[C@@H](C)[C@H](CN(C)C(=O)Nc1cccc3ccccc13)OCCCC[C@H](C)O2	-14	-2.8	0.0	7	-9	1.8%
CCN(c1ccccc1)S(=O)(=O)c1ccc(C(=O)Nc2cc(C)ccn2)cc1	0	-0.5	1.3	11	5	0.7%
O=c1c2nnn(-c3ccccc3)c2ncn1C/C=C/c1ccccc1	-6	-5.6	2.3	-3	-21	2.5%
O=C(NN=C1CCCC1)c1cc(Cl)cc(Cl)c1O	-16	0.5	0.6	-17	-4	2.1%
COc1ccc(N(CC(=O)Nc2ccc(S(=O)(=O)N3CCOCC3)cc2)S(=O)(=O)c2ccc(F)cc2)cc1	-4	-2.9	0.3	13	-1	1.3%
Clc1ccc(-c2nnsc2SCc2ccccc2)cc1	44	-3.8	1.4	8	61	3.1%
Cc1ccc(C(=O)NCCSc2c[nH]c3ccccc23)cc1C	x	x	1.3	-7	x	1.6%
CCOC(=O)c1ccc(N2CN(CCc3ccccc3)CNC2=S)cc1	-4	-2.1	0.1	9	1	-0.5%
O=C(COC(=O)c1cc(-c2ccco2)nc2ccccc12)NCc1ccc2c(c1)OCO2	-18	-0.9	1.8	-1	-5	-0.9%
Cc1ccc(-n2nc3c(=O)n(CCCC(=O)NCCN4CCN(C)CC4)nc(C)c3c2C)cc1	-1	-2.9	-1.1	-24	-3	-0.2%
CCc1sc(C(=O)NCc2cc(C)n(C)n2)cc1Br	-12	-1.1	-0.3	-23	3	18%[38.3 µM]
COc1cc(OC)cc(C(=O)Oc2c(Sc3ccccc3)c(C)nn2C(C)(C)C)c1	x	x	0.0	0	x	4.6%
Cc1cc(Cl)ccc1OCC(=O)N(Cc1ccc(N(C)C)cc1)CC1CCCO1 (stereo not given)	x	x	2.8	22	x	-0.1%
O=C(CCC(=O)N1CCN(c2ccc(Cl)c(Cl)c2)CC1)c1ccccc1	-1	7.9	0.8	-12	x	1.3%
CC(Sc1n[nH]c(N)n1)C(=O)Nc1cccc2ccccc12 (stereo not given)	13	1.0	0.8	3	-11	1.0%

Arranged by value in PINK1 expr mod (lowest first): 3 of the compounds above.
| molecule | PINK1 expr mod |
| --- | --- |
| COc1cccc(N2CC(O)Cn3c2nc2c3c(=O)[nH]c(=O)n2C)c1 (stereo not given) | 0.7% |
| Cc1cc(C(=O)N2CCCC(C(=O)c3cccc(C(F)(F)F)c3)C2)nc(C)n1 (stereo not given) | 1.7% |
| O=C(NN=C1CCCC1)c1cc(Cl)cc(Cl)c1O | 2.1% |

The listing continues:
structure	Six1-Eya2 blk	D2 ag	TRPML1 ag	TRPML1 blocker	CtBP-E1A inh	PINK1 expr mod
O=C(c1ccc2c(c1)N(Cc1ccc(Cl)cc1)C(=O)c1ccccc1S2(=O)=O)N1CCc2ccccc21	x	x	-0.2	50	x	4.8%
O=C(COC(=O)/C=C/c1ccc(OC(F)F)cc1)Nc1ccc2[nH]c(=O)[nH]c2c1	-1	-0.7	-0.5	28	4	0.3%
Cc1ccc(S(=O)(=O)C2(C(=O)N3CCN(c4ccccc4F)CC3)CC2)cc1	-2	-2.2	-0.4	49	-4	2.5%
CCCn1nc(C(=O)Nc2cc(C(=O)OC)ccc2C)c2ccccc2c1=O	5	-0.7	0.0	28	3	4.6%[38.3 µM]
COc1ccc(NC(=S)NC23CC4CC(CC(C4)C2)C3)cc1OC	24	-2.2	0.3	-8	0	28%
CC(=O)c1ccc(NC(=O)C2CCN(c3nnc(C)c4c(C)n(-c5ccccc5)nc34)CC2)cc1	x	x	1.5	30	x	1.6%
COc1ccc(/C(O)=C2/C(=O)C(=O)N(CCN3CCOCC3)C2c2ccc(C)cc2)cc1 (stereo not given)	-3	-1.8	-0.4	9	30	-5.7%[38.3 µM]
CC(Sc1ncnc2ccccc12)C(=O)Nc1ccc2c(c1)OCO2 (stereo not given)	-9	-1.3	4.5	5	-2	-1.1%
COc1ccc(C(=O)C(CCCCC(CN(C)C)C(=O)c2ccc(OC)cc2)CN(C)C)cc1 (stereo not given)	2	-1.3	0.0	14	3	8.9%
CC(OC(=O)CCCC(=O)Nc1ccc(F)cc1)C(=O)c1ccccc1 (stereo not given)	-6	2.0	-0.7	-1	5	-1.6%
CC(=O)c1ccc(N2CCN(S(=O)(=O)c3ccc4c(c3)NC(=O)CO4)CC2)cc1	2	-1.7	-0.1	-4	2	2.8%
Cc1cc(C)c2c(CN3CC(C)OC(C)C3)cc(=O)oc2c1C (stereo not given)	18	0.2	1.7	-6	1	3.4%
S=C(NCCN1CCOCC1)Nc1ccc(Cl)cc1Cl	-1	-1.9	-0.3	10	-2	-0.1%
Cc1nn(Cc2ccc(Cl)c(Cl)c2)c(C)c1NC(=O)c1noc2c1CCc1ccccc1-2	x	x	0.4	-11	x	0.2%
CC(C)(C)n1nnnc1SCC(=O)Nc1nn(-c2ccccc2)nc1C(N)=O	-23	1.3	0.5	8	12	11%
Cc1cccc(NS(=O)(=O)c2ccc3[nH]c(=O)[nH]c3c2)c1C	2	1.8	-0.4&-0.3	-11&-18	3	3.0%&-0.6%
Cc1cc(C)c(NC(=O)C2CCCCN2C)c(C)c1 (stereo not given)	4	-2.4	1.1	3	12	2.0%[38.3 µM]
O=C(Nc1ccccc1C(=O)NCc1ccccc1)C1=CSCCO1	4	2.5	0.8	2	x	1.9%
CCOc1ccc(C(=O)Nc2ccc(-c3nc4ccccc4[nH]3)cc2)cc1[N+](=O)[O-]	-13&-10	0.1	0.2&-0.3	-10	-8	11%&0.7%
CC(C)CN=c1cc(-c2ccccc2)oc2ccc(Cl)cc12	1	-7.3	2.6	5	1	u
CCOC(=O)CSc1nc2cc(C(F)(F)F)cnc2n1C	3	-2.4	4.5	-13	9	-2.6%
COc1ccccc1C(C[N+](=O)[O-])c1c[nH]c2ccccc12 (stereo not given)	-16	-3.7	0.2	-9	-7	6.1%
O=C(N/N=C/c1cccc(O)c1)C(=O)N1CCCCCC1	1	0.3	-0.3	1	12	-0.1%
COc1ccc2cc(N3CCCC3=O)ccc2c1	-8	-2.6	0.8	21	-1	1.8%
O=C(CCCN1C(=O)CCC1=O)Nc1ccc(Br)cc1F	6	-2.8	1.6	-8	9	0.1%[38.3 µM]
COc1cc(C=O)ccc1OCCOCCOc1c(C)cc(Cl)cc1Cl	23	1.1	3.3	-6	25	7.3%
OCCC1CN(Cc2nc3c(s2)CCCC3)CCN1CCc1ccccc1 (stereo not given)	2	-3.4	0.0	2	-2	1.6%
CC(C)c1nnc(NC(=O)CCC(=O)N2CCN(c3ccccc3F)CC2)s1	2	0.5	-1.1	-17	3	0.6%
CC(C)Cc1ccc(S(=O)(=O)NCc2nc3cccnc3n2Cc2ccccc2)cc1	x	x	0.5	5	x	0.5%
CCn1c(=O)cc(OCC(=O)N2CCN(c3ccc(C(C)=O)cc3)CC2)c2ccccc21	x	x	-0.2	-6	x	1.8%
CCc1nc(N2CCN(S(C)(=O)=O)CC2)c2c3c(sc2n1)CCCC3	-2	11	0.0	-7	1	-0.3%
CC(C)Cc1cc(C(=O)N2CCCC(C(=O)c3cc(F)ccc3F)C2)no1 (stereo not given)	4	2.2	-1.8	-10	12	-0.2%
CCN(CC)C(=O)OCc1c(-c2cccc(OC)c2)ncc2ccccc12	0	-10	0.4	-12	-2	0.8%
COc1ccc(CNC(=O)Cn2c(=O)oc3cc(S(=O)(=O)N4CCC(C)CC4)ccc32)cc1	x	x	-0.1	-5	x	5.5%
Cc1ccc(CNC(=O)Cn2cc(S(=O)(=O)Cc3cccc(Cl)c3)c3ccccc32)cc1	x	x	1.8	-9	x	1.2%
COc1ccc(C(=O)N2CCC2(C)C(=O)NC(C)C)cc1OC (stereo not given)	4	-3.3	-0.3	-15	8	0.0%
CN(Cc1ccco1)C(=O)Cn1c(=O)oc2cc(S(=O)(=O)NCc3ccccc3)ccc21	4	-1.4	0.1	5	6	2.8%
COc1cccc(-c2c(C(=O)N/N=C(\C)c3ccc(Cl)s3)nnn2-c2nonc2N)c1	0	-3.6	1.3	10	-12	8.5%
O=C(NCCc1ccccc1)c1ccc(Cl)nc1	2	-3.6	-0.3	8	0	-0.3%
COc1cc(OC)c(C(=O)NCc2cccnc2)cc1OC	-8	-2.4	-1.0	2	-1	0.7%
CCn1c(COc2cccc(OC)c2)nnc1SCC(=O)NC1CCCC1	2	6.1	-0.6	-8	3	-0.2%
CCOCCCn1c(=NC(C)=O)c(C#N)cc2c(=O)n3ccccc3nc21	-2	-7.1	0.7	-2	0	0.8%
CCCS(=O)(=O)N1CC(=O)N(c2cccc(Cl)c2)C(C)(C(=O)NC2CCCCC2)C1 (stereo not given)	x	x	0.8	38	x	-1.1%
